nsP2pro primary – inhibitors of chikungunya virus nsP2 protease; AID 1964107; Potency, µM (series often up to 24.9 µM), without a hit: top-dose activity change, negative = inhibition, actives largely listed as inhibitors; Q8JUX6; hit rate 1.1% among 31,000; FRET peptide cleavage, nsP2pro, fluorescence 1 h; active means well fitted inhibition curve with a large enough effect; inconclusive means small, poorly fitted or top-dose-only effect; inactive means no such curve, though single readings can be large or run the other way; further: nearly all actives have a fitted effect of over 60% in size; a reference inhibitor and vehicle were the controls
* = called active by the depositor; i = inactive; u = inconclusive; & = joins results of further samples; [ ] = another dose, or the depositor's remark. On the % scale 0 is the no-effect control and ±100 the full control effect; potency means the concentration at half of the fitted maximal effect. Some of the compounds tested, so the mix of outcomes need not match the whole.

SMILES	nsP2pro primary
COc1ccc(C2Nc3ccccc3C(=O)N2Cc2ccccc2)cc1COc1cccc(Cl)c1 (stereo not drawn)	-9.2%
CC(=O)OCC(N)C(=O)c1ccccc1 (stereo not drawn)	-55.6%
COc1ccccc1C(=O)Oc1ccc(C(c2c(C)[nH][nH]c2=O)c2c(C)[nH][nH]c2=O)cc1	35.9%[activator]
CC1C(O)C(O)C2C(C(=O)OCCc3ccc(O)cc3)=COC(O[C@@H]3O[C@H](CO)[C@@H](O)[C@H](O)[C@H]3O)C12 (stereo partly drawn)	47.3%[10 µM]
CCCN(CCC)c1nc(-c2ccccc2F)nc2ccccc12	-15.3%
NC(=O)C1CCN(c2nc(-c3ccc(N)cc3)cs2)CC1	i
CC(=O)Nc1ccc(S(=O)(=O)Nc2nccs2)cc1	3.9%&0.7%
CN(Cc1ccccc1)C1CCOC2(CCN(C(=O)CCc3nc4ccccc4[nH]3)CC2)C1 (stereo not drawn)	4.0%
Cn1nc(NC(=O)C2CCS(=O)(=O)C2)c2c(Oc3cccnc3)cccc21 (stereo not drawn)	i
CN(c1ccccc1)c1cc(=O)c2ccnc(-c3ccc(CO)cc3)c2o1	-2.9%[39.2 µM]
O=C(c1cnc2ccccn12)N1CCc2c(nc(-c3ccccc3)[nH]c2=O)C1	2.9%
CCCCNC(=O)c1cccc(-n2cnc3cccnc32)c1C	-15.1%
NC(=O)c1nc(-c2ccc(F)c(F)c2)nc2c1[nH]c(=O)n2-c1cccc(Cl)c1	-17.0%
CN1CCN(Cc2ncc[nH]2)CC12CCC(=O)N(CC(=O)O)CC2 (stereo not drawn)	i
CO[C@H]1[C@H](NC(=O)CC(C)C)c2ccccc2C12CCNCC2	-2.8%
C=C1C[C@@]23CC[C@@H]4[C@](C)(C(=O)O)CCC[C@@]4(C)C2=CC[C@H]1C3	u
CCCNC(=O)N1CC(Oc2ccc(-c3nc(C)no3)cc2)C1	i
CC(=O)CC(c1ccccc1)c1c(O)c2ccccc2oc1=O (stereo not drawn)	6.0%
COc1ccc(C2=Nn3c(nnc3-c3ccc(OC)cc3)SC2)cc1	i
COc1ccnc(NC(=S)N2CCN(c3ccc4ccccc4n3)CC2)c1	4.3%
O=C(O)c1cccc(-c2cccc(C(F)(F)F)c2)c1	-10.3%[39.2 µM]
C=C1C(O)CC2C(C(=O)O)=COC(O[C@@H]3O[C@H](COC(=O)c4ccc(O)cc4)[C@@H](O)[C@H](O)[C@H]3O)C12 (stereo partly drawn)	33.5%[10 µM]
CCC(C(=O)Nc1ccc(C(=O)OC)cc1)n1nc(-c2ccc(C)cc2)c2c(c1=O)CCCC2 (stereo not drawn)	-11.4%
C=Cc1cc2oc(-c3ccc(O)c(F)c3)nc2cc1O	32.6%
CNc1nc(Oc2ccc(=O)n(C)n2)nc(N2CCOCC2)n1	-17.1%
Nc1cccc(-c2csc(NC(=O)CCCCCCC(=O)NO)n2)c1	7.1%
O=C1CCc2cc(S(=O)(=O)Nc3cccnc3)ccc2N1	-5.9%
CCN(CC)CCn1c(-c2ccccc2)nc2c(N3CCOCC3)nc(C)nc21	-4.2%
COC(=O)C1=C(C)NC(C)=C(C(=O)OCC(C)=O)C1c1ccccc1[N+](=O)[O-] (stereo not drawn)	12.4µM*
O=C(c1ccc(N2CCC(O)CC2)nc1)N1CCC(N2CCOCC2)CC1	-11.6%
Cc1ccc(C)c(CN2C(=O)c3ccccc3S(=O)(=O)c3ccc(C(=O)NCCC4=CCCCC4)cc32)c1	-13.8%
Cc1nc(CN2CCN(c3nccc(-c4cccnc4)n3)CC2)cs1	i
CN1C[C@@H](NC(=O)CC(C)(C)CC(=O)O)C[C@H]1c1nc(-c2ccccn2)no1	2.1%[39.2 µM]
CN(C)S(=O)(=O)c1ccc2c(c1)N(CC(=O)N1CCC(C(N)=O)CC1)CCS2	-18.2%
O=C1NC2(CCN(Cc3ccccc3C(F)(F)F)C2)COc2ccccc21 (stereo not drawn)	i
O=C(O)c1ccnc2cc(-c3nc4ccccc4n3CCN3CCCCC3)sc12	4.8%
Cc1nc(C)c(-c2ccc3ncnc(NCCc4cnc[nH]4)c3c2)s1	i
COc1cccc(C2=NN(S(C)(=O)=O)C(c3cn(-c4ccccc4)nc3-c3cccs3)C2)c1 (stereo not drawn)	-25.7%
CNCCC(Oc1ccc(C(F)(F)F)cc1)c1ccccc1 (stereo not drawn)	u
CN(C)CC1(O)CCC2(CCN(C(=O)CCC3CCCC3)CC2)CC1	i

Among those listed so far, 3 contain two or more sulfur atoms.
SMILES	nsP2pro primary
CC(=O)Nc1ccc(S(=O)(=O)Nc2nccs2)cc1	3.9%&0.7%
CN(C)S(=O)(=O)c1ccc2c(c1)N(CC(=O)N1CCC(C(N)=O)CC1)CCS2	-18.2%
COc1cccc(C2=NN(S(C)(=O)=O)C(c3cn(-c4ccccc4)nc3-c3cccs3)C2)c1 (stereo not drawn)	-25.7%

Returning to the listing, repeating the two entries before the break.
SMILES	nsP2pro primary
CNCCC(Oc1ccc(C(F)(F)F)cc1)c1ccccc1 (stereo not drawn)	u
CN(C)CC1(O)CCC2(CCN(C(=O)CCC3CCCC3)CC2)CC1	i
CC(=O)N1c2nc(-c3ccco3)nn2C2(CCCCC2)[C@@H]2CCCC[C@@H]21	-28.5%
CN(Cc1ccccc1)c1ncnc2onc(-c3ccc(F)cc3)c12	-8.6%
Cc1cccc2nc(CNC(=O)c3cccc(C4CCNC4)c3)cn12 (stereo not drawn)	1.4%
CCCN(C/C=C/c1ccccc1)C(=O)c1cccc(OCC(N)=O)c1	3.6%
Cc1cccc(Oc2ccc(NC(=O)CCC(=O)OCC(=O)c3ccc(Br)cc3)cc2)c1C	-11.1%
C#CC[C@H](c1nc2cc(Cl)ccc2c(=O)n1Nc1ccccc1)N(CCCN)C(=O)c1cccc(Cl)c1F	53.0%[activator]
CC(C)(C)OC(=O)N1CCN(c2ccc(NCc3ccc(-c4ccccc4F)o3)cc2)CC1	-5.9%
CN(C)c1ccc(/C=C/C(=O)Nc2cccc([S+](=O)([O-])Nc3ccccc3F)c2)cc1	-11.4%
CCOC(=O)N1CCc2c(sc3c2c(=O)n(Cc2ccccc2)c(=O)n3Cc2ccc(C)cc2)C1	-15.7%
COc1ccccc1CNC(=O)CSc1nc(=O)[nH]c2c1CCC2	-6.6%
CCC(C)C(=O)OC1CC(C)C=C2C=CC(C)C(CCC(O)CC(O)CC(=O)O)C21 (stereo not drawn)	u
Cc1cc(Cl)ccc1OCC(=O)N[C@@H]1CCOC[C@H]1OCC(=O)O	i
NC(=O)C1CCN(C(=O)c2cccc(NC(=O)c3nsc4ccccc34)c2)CC1	-2.5%
Cc1cnc(CN2CC3(CCCN(C(=O)c4ccc(C)s4)C3)CCC2=O)cn1 (stereo not drawn)	2.2%
COc1cccc(C(=O)CCN[C@@H](C)[C@H](O)c2ccccc2)c1	1.57µM*
NC(=O)C1CCN(c2nc(-c3cccc4ccccc34)cs2)CC1	2.2%
Cc1nn(C)c2c1c(C(F)(F)F)cc(=O)n2C(C)C(=O)N1CCN(c2ccccc2)CC1 (stereo not drawn)	-15.3%
Cc1cccc(S(=O)(=O)N2CCN(S(=O)(=O)c3ccc4c(c3)OCCO4)CC2)c1	2.6%
Cc1oc2ccn(C)c(=O)c2c1C(=O)NCc1cc(F)ccc1F	i
CCOc1cccc(-c2nc(C(=O)Nc3ccc(F)cc3)cs2)c1	i

Gathered by group: the compounds so far containing a furan ring, fused or not (three)
SMILES	nsP2pro primary
CC(=O)N1c2nc(-c3ccco3)nn2C2(CCCCC2)[C@@H]2CCCC[C@@H]21	-28.5%
CC(C)(C)OC(=O)N1CCN(c2ccc(NCc3ccc(-c4ccccc4F)o3)cc2)CC1	-5.9%
Cc1oc2ccn(C)c(=O)c2c1C(=O)NCc1cc(F)ccc1F	i

The list continues.
SMILES	nsP2pro primary
Cn1cnc(S(=O)(=O)N2CCC(C(=O)N3CCN(c4ccccc4F)CC3)CC2)c1	-17.6%
CCN1CCN(C(=O)CCC2CCN(S(=O)(=O)c3ccccc3)CC2)CC1	-0.7%
N#Cc1cccc(NC(=O)N[C@H]2CO[C@H]3[C@@H]2OC[C@@H]3Nc2nccc(-c3cccs3)n2)c1	-13.5%
CC(NC(=O)C1CCCN(c2cnc3nccnc3c2)C1)c1cccnc1 (stereo not drawn)	-25.8%
CN1CCN(Cc2nnc(C(=O)N3CCC[C@@H]3c3ccc(Br)cc3)n2Cc2ccccc2)CC1	i
O=C(NCCc1csc(-c2ccc(Cl)cc2)n1)c1ccco1	u
COP(=S)(OC)SCN1C(=O)c2ccccc2C1=O	u
COCCNC(=O)CSc1nc(-c2ccccc2C)nc2c1c(=O)n(C)c(=O)n2C	-24.7%
Cc1cc(C=CC#N)cc(C)c1Nc1nc(Nc2ccc3scnc3c2)c2[nH]cnc2n1	-21.2%
CCOC(=O)CCNC(=O)N1CCCC(c2nc(-c3cnccn3)no2)CCNC(=O)CC1 (stereo not drawn)	0.6%
CCOC(=O)C1CCN(C(=O)C(C)(C)NC(=O)Nc2ccc(N)cc2)CC1	2.2%
C[N+](C)(C)CCCCCC[N+](C)(C)C	-2.7%
Cc1[nH]nc(C(=O)N[C@@H]2COCC[C@@H]2OCc2ccccc2)c1Cl	i
COCCN1CCCC2(CCN(C(=O)c3ccc(Cl)s3)C2)C1=O (stereo not drawn)	3.7%
CC1(C)CC[C@]2(C(=O)O[C@@H]3O[C@H](CO)[C@@H](O)[C@H](O)[C@H]3O)CC[C@]3(C)C(=CCC4[C@@]5(C)CC[C@H](O[C@@H]6O[C@H](C(=O)O)[C@H](O)[C@H](O)[C@H]6O)C(C)(C)C5CC[C@]43C)[C@@H]2C1 (stereo partly drawn)	u
CC(=O)NCCCC(=O)N1CCC2(CC1)CN(C(=O)NC(C)C)Cc1ccccc1O2	-13.8%
CC(C)C1(O[C@@H]2O[C@H](CO)[C@@H](O)[C@H](O)[C@H]2O)CC=C(CO)CC1 (stereo partly drawn)	50.2%[activator]
Cc1ccc(Nc2c3c(nc4ccccc24)CCC3)cc1F	-6.6%
COc1cc(CNCCCSc2nnnn2C)cc(Br)c1OC	-18.0%
C[C@]12CC[C@H]3[C@@H](CCC4=CC(=O)CC[C@@H]43)[C@@H]1CC[C@@H]2OC(=O)CCc1ccco1	4.5%
O=C(O)CCc1cccc(O)c1O[C@@H]1O[C@H](CO)[C@@H](O)[C@H](O)[C@H]1O	151.1%[activator]
CCN(C(=O)c1ccc2c(c1)N(Cc1cccc(Cl)c1)C(=O)c1ccccc1S2=O)c1ccccc1 (stereo not drawn)	-22.4%
O=C(O)c1ccccc1Nc1cccc(C(F)(F)F)c1	-4.0%
Cc1c(-c2ccccc2)no[n+]1[O-]	i
C=CC(=O)Nc1cc(Nc2nccc(-c3c[nH]c4ccccc34)n2)c(OC)cc1N(C)CCN(C)C	59.2%[activator]
Cc1cc(-c2nnc3n2CCCCC3)c(C)n1-c1ccc(C(F)(F)F)cc1	2.0%
CCCCCCCCCCCCOS(=O)(=O)O	-1.4%
C=CC(C)(O)C(O)CC1C(C)(O)C(O)C(O)C2C(C)(C)CCCC21C (stereo not drawn)	-10.3%
O=C(Cc1ccccn1)NCCNC(=O)c1ccc(-c2cccc(C(F)(F)F)c2)cc1	i
Cc1ccc(-c2cn3c(n2)N(C(=O)C2CCCO2)CCC3)cc1 (stereo not drawn)	i
CCC(CC)C(=O)NCCc1noc(C)n1	0.1%
C=CCC1(CO)CCCN(Cc2nc(C)cc(-c3ccccc3)n2)C1 (stereo not drawn)	3.3%
O=[S+]([O-])(c1ccc2c(c1)OCCO2)N1CCN([S+](=O)([O-])c2ccc(F)cc2Cl)CC1	-7.4%
NCC[C@H](O)C(=O)N[C@@H]1C[C@H](N)[C@@H](O[C@H]2O[C@H](CN)[C@@H](O)[C@H](O)[C@@H]2O)[C@H](O)[C@@H]1O[C@H]1O[C@H](CO)[C@@H](O)[C@H](N)[C@@H]1O	0.0%[0.199 µM]
O=c1c2ccccc2nc(-c2ccccc2O)n1Cc1ccccc1	u
CCN(CC)C(=O)C1CCCCC(=O)N1C (stereo not drawn)	-3.5%
Cc1ccc(C2(O)CCN(c3nc(C)ccc3C(N)=O)CC2)nc1	4.7%
Cc1ccc(OCCn2c(CCNC(=O)C3CC3)nc3ccccc32)cc1	-12.0%
O=C(CSc1nc(=O)[nH]c2c1CCC2)NCc1ccc(Cl)cc1	-6.6%
Cc1nn(-c2ccc(F)cc2)c(C)c1[C@@H]1C=C[C@@H](NC(=O)NC(C)C)C1	-8.4%[39.2 µM]
CCc1cccc(NC(=O)c2c(C)oc3ncnc(N4CCCCC4)c23)c1	-15.3%
Cc1ccc(OCCSc2ncccn2)c(Br)c1	-5.3%
CCCn1c(C)nc2c(NC(C)CN(C)C)nc(C)nc21 (stereo not drawn)	4.4%
CC1(C)CC[C@]2(C(=O)O[C@@H]3O[C@H](CO)[C@@H](O)[C@H](O)[C@H]3O)CC[C@]3(C)C(=CCC4[C@@]5(C)C[C@@H](O)[C@H](O)[C@@](C)(CO)C5CC[C@]43C)C2[C@@H]1O (stereo partly drawn)	123.7%[activator][10 µM]
CCc1ccc(OC(=O)c2sc3ncn(Cc4cccc(F)c4)c(=O)c3c2C)cc1	-19.4%
COc1ccccc1C1=NS(=O)(=O)N(C)C(C(=O)Nc2cc(OC)c(OC)c(OC)c2)=C1	-1.9%

Some of the entries so far, as a markdown table:
| SMILES | nsP2pro primary |
| --- | --- |
| COc1ccnc(NC(=S)N2CCN(c3ccc4ccccc4n3)CC2)c1 | 4.3% |
| CCCN(C/C=C/c1ccccc1)C(=O)c1cccc(OCC(N)=O)c1 | 3.6% |

From PubChem
